# Rango release inh: inhibition of RanGTP-driven Rango-importin beta dissociation; Biochemical FRET Rango-importin beta, RanGTP-induced dissociation; AID 540253; O95149+P62826; 340,000 compounds, 0.071% hits; Potency, µM (titrated, usually from 46.1 µM), inactives show at the top dose activity change, negative = inhibition; active means falling FRET ratio curve, often poorly fitted, with flat reads before Ran was added; inconclusive means other falling curves, or compound fluorescence or quenching; inactive means flat or rising ratio curve;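 also: potency is read from the fitted curve at half-maximal effect; % of control where 0% means no effect; nearly all actives have a fitted effect of over 45% in size; -100% = wells without RanGTP and RCC1; the record marks most hits as doubtful in a second field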
#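 Quantitative HTS using a FRET biosensor: 0.1 uM Rango, 0.25 uM importin beta, 0.6 uM Ran, 2 mM GTP, 0.2 uM RCC1 final, PBS with DTT, Tween-20 and BSA. Post-read taken 45 min after Ran addition.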
# miR-21 reporter: miR-21 reporter, rising signal; AID 2288; HeLa miR-21 FLuc reporter, luciferase, 48 h; 340,000 tested, under 10 active; Potency, µM (doses to about 38.3 µM), for the others: at the top dose reporter change, positive = more light; active = well fitted rising curve with a large enough effect; inconclusive = small, poorly fitted or top-dose-only effect; inactive = no such curve, though single readings can be large or run the other way;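 also: % of control where 0% means no effect; miR-21 action dims this reporter so a rising signal means less miR-21 action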
#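 HeLa miR-21-FLuc reporter line, endogenous miR-21; 2000 cells/well in DMEM/10% FBS; compound titration up to ~40uM final, 48 h, 37 degree Celsius; luciferase detection reagent, 15 min lysis, CCD luminescence.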
# GLA inh pH 4.5: blocks human alpha-galactosidase A at pH 4.5. 230,000 tested, under 10 active. purified enzyme, 4-MU-alpha-Gal fluorescence, pH 4.5. activity change, negative = inhibition, % at 105 µM; inconclusive = small, poorly fitted or top-dose-only inhibition, or a rising curve; inactive = flat fitted curve, though single readings scatter; no compound was filed as active;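 also: 0% = full activity with enzyme and -100% = basal without enzyme; dose as in the result columns while the protocol names 77 µM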
# Rango-impB inh: inhibitors of Rango-importin beta complex formation; Potency, µM (doses to about 92.2 µM), for the others: at the highest dose inhibition of complex formation; 340,000 compounds, 0.031% hits; Rango CFP/YFP FRET sensor + importin beta, 45 min; AID 540263; Q14974; active = rising FRET ratio curve, often small or poorly fitted; inconclusive = mostly compound fluorescence or quenching in the first reads; inactive = flat curves in all reads;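 also: potency is read from the fitted curve at half-maximal effect; 0% = DMSO wells and 100% = buffer wells lacking importin beta; nearly all actives have a fitted effect of over 15% in size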
# Target sequence (Q14974 whole entry, looked up): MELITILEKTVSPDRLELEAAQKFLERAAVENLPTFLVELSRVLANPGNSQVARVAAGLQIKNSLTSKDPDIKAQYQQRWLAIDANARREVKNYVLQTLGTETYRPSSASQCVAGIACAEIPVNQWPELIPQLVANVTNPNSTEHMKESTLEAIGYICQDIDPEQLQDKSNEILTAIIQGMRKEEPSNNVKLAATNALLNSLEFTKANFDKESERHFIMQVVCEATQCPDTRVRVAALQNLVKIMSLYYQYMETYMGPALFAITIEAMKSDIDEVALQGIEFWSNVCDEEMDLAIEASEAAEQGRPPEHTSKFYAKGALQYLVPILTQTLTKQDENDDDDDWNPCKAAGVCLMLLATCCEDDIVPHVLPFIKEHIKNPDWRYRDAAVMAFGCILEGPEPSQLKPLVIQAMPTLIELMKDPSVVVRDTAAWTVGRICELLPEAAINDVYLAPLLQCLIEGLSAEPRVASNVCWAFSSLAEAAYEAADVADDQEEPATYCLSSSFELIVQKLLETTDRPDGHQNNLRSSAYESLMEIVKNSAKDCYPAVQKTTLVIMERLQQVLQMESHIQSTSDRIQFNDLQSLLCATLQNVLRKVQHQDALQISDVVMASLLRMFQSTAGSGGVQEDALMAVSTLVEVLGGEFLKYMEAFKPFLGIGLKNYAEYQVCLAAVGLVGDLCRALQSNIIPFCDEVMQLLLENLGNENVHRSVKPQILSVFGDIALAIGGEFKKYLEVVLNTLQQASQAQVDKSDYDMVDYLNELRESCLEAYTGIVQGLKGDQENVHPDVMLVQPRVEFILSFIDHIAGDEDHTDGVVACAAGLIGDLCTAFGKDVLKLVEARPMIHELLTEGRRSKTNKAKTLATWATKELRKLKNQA
#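 FRET biosensor Rango (snurportin 1 IBB between N-terminal EYFP and C-terminal Cerulean), 50 nM in PBS/1 mM DTT/0.02% Tween-20/0.1% BSA, preincubated 5 min RT with compound; 0.125 microM importin beta added, 45 min RT, CFP/YFP FRET ratio read.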
# * hit, by the source's call; ? = inconclusive; . = no result given; & = joins results of further samples; [ ] = another dose, or the depositor's remark.
SMILES,Rango release inh,miR-21 reporter,GLA inh pH 4.5,Rango-impB inh
COc1cc(N=Nc2cccc(S(N)(=O)=O)c2)c2ccccc2c1N,-24.5%,-19.2%,-18.6,7.5%
CC1Cc2cc(S(=O)(=O)N3CCN(c4ccccc4F)CC3)ccc2N1C(=O)C1CC1 (stereo not given),11.6%,0.9%,.,-5.8%
CCOc1ccc(C(=O)CCC(=O)Nc2ccncc2)cc1,14.3%,.,.,-0.1%
COc1cc(C(=O)NCC(=O)NNC(=O)CN(C)S(=O)(=O)c2ccc(Cl)cc2)cc(OC)c1OC,6.1%,.,.,0.3%
CSc1n[nH]c(/N=C/c2oc(O)c3ccccc23)n1,-2.8%,0.3%,12.3,-5.4%
O=C(Nc1ccc(Cc2ccc(NC(=O)C3CC3)cc2)cc1)C1CC1,0.0%,5.8%,4.4,-0.5%
O=C(Nc1cc(C(F)(F)F)cc(C(F)(F)F)c1)Nc1cnn(-c2ccc([N+](=O)[O-])cc2)c1C(F)(F)F,-3.3%,-11.7%,1.6,-1.6%
COC(=O)c1ccc(CN(C(=O)N2CCN(C)CC2)S(=O)(=O)c2ccc(C)cc2)cc1,-7.0%,.,.,4.3%
CN(C)c1ccc(/C=N/NC(=O)CCc2nc3ccccc3[nH]2)cc1,-0.1%,0.0%,-3.5,0.9%
CSc1nnc(Cc2cc(=O)[nH]c(=O)[nH]2)n1-c1cc(C)ccc1C,-9.8%,-0.4%,-0.6,-1.7%
CC(=O)Nc1cc(S(=O)(=O)Nc2cccc(C)c2)c(C)cc1C,-5.4%,5.3%,-0.5,-2.7%
Clc1ccc(-c2nnnn2-c2ccc(Cl)cc2)cc1,14.0%,-8.5%,1.1,0.1%
Cc1cccc(C)c1NC(=O)C1CCCN1S(=O)(=O)c1ccc2c(c1)n(C)c(=O)c(=O)n2C (stereo not given),6.6%,0.5%,.,-3.1%
Cc1cccc(N2CCN(S(=O)(=O)c3ccc4c(c3)C(C)(C)C(=O)N4C)CC2)c1C,-5.9%,2.2%,.,?
CC1Cc2ccccc2N1C(=O)CSc1nc2c(c(=O)n(C)c(=O)n2C)n1Cc1ccccc1 (stereo not given),5.4%,-4.7%,5.3,0.9%
Cc1cc(C)n(C(C)CNC(=O)c2ccc3c(c2)OCO3)n1 (stereo not given),-5.4%,0.3%,.,-1.7%
c1ccc2c(Cn3nnc4ccccc43)cccc2c1,-10.2%,-6.6%,-8.9,2.5%
O=S(=O)(c1cc(Cl)cc(Cl)c1O)N1CCC2(CC1)OCCO2,4.9%,?,.,-2.8%
Cc1nc(SCC(=O)Nc2cccnc2Cl)nc(C)c1C,0.5%,-14.5%,6.1,2.1%
Cc1ccc(S(=O)(=O)N(C)C)cc1NC(=O)CSc1nncs1,-10.4%,.,.,-0.4%
COc1ccccc1CN1CCNC(=O)C1CC(=O)N(C)Cc1nc(C)cs1 (stereo not given),-6.9%,-0.6%,.,2.5%
Nc1nc(Nc2cccc(Cl)c2)nc(NCc2ccco2)c1[N+](=O)[O-],0.8%,-72.4%,-6.4,-2.9%
CC(NC(=O)/C=C/c1ccco1)c1nc2ccccc2n1Cc1c(Cl)cccc1Cl (stereo not given),0.2%,-8.4%,-8.3,-3.0%
CCOC(=O)CNC(=O)CSc1nnc(-c2ccccc2)n1Cc1ccco1,6.8%,-2.3%,-0.9,5.7%
O=C(N/C(=C\c1cccnc1)C(=O)N1CCCCC1)c1cccc(Br)c1,-0.7%,-3.3%,.,-2.1%
Fc1ccc(CNc2nc3ccccc3n3nnnc23)cc1,?,-18.3%,0.2,?
CCC(Cc1ccccc1)NC(=O)C1CCN(S(=O)(=O)c2c(C)noc2C)CC1 (stereo not given),8.7%,0.6%,1.6,-2.3%
CCOC(=O)CN(C(=O)c1ccccc1)c1ccccc1C,30.7%,1.6%,-14.4,3.1%
O=C(O)c1ccc2c(=O)n(-c3ccc(F)cc3)c(=S)[nH]c2c1,5.4%,-0.5%,0.9,1.1%
CCCc1nnc(NC(=O)c2ccc([N+](=O)[O-])cc2)s1,0.7%,-28.6%,0.9,0.0%
Cc1cc(C)nc(NC(=O)c2ccccc2O)n1,11.9%,0.5%,.,-3.6%
Cc1cc(C(=O)OCC(=O)N2CC(C)OC(C)C2)ccc1[N+](=O)[O-] (stereo not given),6.1%,2.2%,10.2,-0.2%
Cc1ccc(C(=O)NCC(=O)N/N=C/c2cccs2)cc1[N+](=O)[O-],-14.3%,-0.1%,-2.9,4.8%
O=S(=O)(c1ccc(Oc2ccc(Br)cc2)cc1)N1CCOCC1,1.1%,29.8%,-5.4,-1.9%
Cc1ccc(NCc2ccccc2O)cc1,-5.8%,-39.7%,4.6,5.5%
CC(=O)Nc1ccc(C(=O)OCC(=O)NCCC2=CCCCC2)cc1,6.5%,.,.,-2.6%
NS(=O)(=O)c1ccc(NC(=O)COC(=O)C2(c3ccc(F)cc3)CCCC2)cc1,10.9%,10.7%,5.0,0.5%
O=C(Nc1cccc(-c2ccccc2)c1)N1CCN(C(=O)Nc2cccc(-c3ccccc3)c2)CC1,1.9%,-0.4%,1.2,-1.8%
CCOc1ccc(NC(=O)Nc2cccs2)cc1,-11.6%,-37.3%,-2.9,-5.1%
O=c1[nH]c2ccc(N=Cc3c(O)ccc4cc(Br)ccc34)cc2[nH]1,-3.5%,-3.0%,-3.4,?

# Profiles as entered above. Screens in order: Rango release inh	miR-21 reporter	GLA inh pH 4.5	Rango-impB inh
# `Fc1ccc(CNc2nc3ccccc3n3nnnc23)cc1` in the list: ?	-18.3%	0.2	?
# `Nc1nc(Nc2cccc(Cl)c2)nc(NCc2ccco2)c1[N+](=O)[O-]` in the list: 0.8%	-72.4%	-6.4	-2.9%
# `CCOC(=O)CNC(=O)CSc1nnc(-c2ccccc2)n1Cc1ccco1` in the list: 6.8%	-2.3%	-0.9	5.7%
# `CC(=O)Nc1ccc(C(=O)OCC(=O)NCCC2=CCCCC2)cc1` in the list: 6.5%	.	.	-2.6%
# `Cc1cc(C(=O)OCC(=O)N2CC(C)OC(C)C2)ccc1[N+](=O)[O-]` (stereo not given) in the list: 6.1%	2.2%	10.2	-0.2%

# (list continues)
SMILES,Rango release inh,miR-21 reporter,GLA inh pH 4.5,Rango-impB inh
COc1ccc(C(=O)NCCc2cnc[nH]2)cc1OC,13.7%,3.0%,.,4.3%
Cc1ccc(-c2cn3cccnc3n2)cc1NC(=O)c1c(-c2ccccc2Cl)noc1C,2.5%,22.5%,22.2,-0.1%
CC(C)c1ccc(NC(=O)CCS(=O)(=O)c2cccc3nonc23)cc1,1.1%,-13.4%&-5.9%,.,-2.3%
Cc1ccccc1S(=O)(=O)Cc1ccc(C(=O)NCCN(Cc2ccccc2)C(C)C)o1,?,3.8%,.,-0.2%
CN(C)CC[n+]1ccc(C(=O)c2ccccc2)cc1,3.9%,7.1%,.,-2.0%
Cc1ccc(CS(=O)(=O)CCC(=O)O)cc1,-13.6%,1.4%,-5.2[21.1 µM],-4.8%
NC(=S)N/N=C/c1ccc(C(F)(F)F)cc1,14.9%,16.4%,-3.5,6.7%
CCCCOC(=O)C1C2C=C[C@]3(CN(CCCOC)C(=O)[C@H]13)O2 (stereo not given in full),-16.1%,-2.4%,5.0,?
COc1ccc(NCc2cc(=O)[nH]c3ccccc23)cc1,8.9%,-2.1%,.,3.0%
CCOC(=O)C1CCN(CC(O)COc2ccc(C(C)(C)C)cc2)CC1 (stereo not given),9.0%,-0.3%,-6.4,?
Cn1c(SCC(=O)N2CCCC2)nnc1-c1ccc(S(=O)(=O)N2CCCC2)cc1,13.4%,0.2%,3.5,1.0%
CC(C)C(=O)N1CCN(c2cc(N3CCN(C)CC3)c(F)cc2[N+](=O)[O-])CC1,-7.9%,-7.3%,-6.2,-1.2%
Cc1nc2ccccc2c(=O)n1NC(=O)c1cncc(Br)c1,7.6%,0.3%,10.1,1.4%
O=C(CN1C(=O)CCC1=O)Nc1ccc(Cc2ccc(NC(=O)CN3C(=O)CCC3=O)cc2)cc1,-17.2%,-8.8%,10.5,-0.3%
O=C(O)c1cnc(-c2ccccc2)nc1C(F)(F)F,0.9%,1.1%,2.9,0.3%
COc1cccc(CNc2nc3ccc(NC(C)=O)cc3s2)c1,8.0%,.,.,-1.1%
Oc1ccc(-c2nccc(-c3ccc(Br)cc3)n2)cc1,9.6%,-39.3%,.,0.1%
CC(C)Oc1ccc(/C=C/C(=O)NCC2COc3ccccc3O2)cc1 (stereo not given),-1.8%,-1.8%,-10.0,1.3%
COc1ccc(CCN(C)C(=O)CCCN2C(=O)c3cccc4cccc(c34)C2=O)cc1OC,-9.4%,-16.9%,.,0.2%
O=C(COC(=O)c1ccccc1Br)Nc1ccccc1F,2.2%,-11.9%,10.2,-2.9%

# 4 of these compounds in a different format:
# Results follow in this order: Rango release inh, miR-21 reporter, GLA inh pH 4.5, Rango-impB inh
> CC(C)Oc1ccc(/C=C/C(=O)NCC2COc3ccccc3O2)cc1 (stereo not given)
    -1.8%, -1.8%, -10.0, 1.3%
> Cc1ccc(NCc2ccccc2O)cc1
    -5.8%, -39.7%, 4.6, 5.5%
> CCOc1ccc(C(=O)CCC(=O)Nc2ccncc2)cc1
    14.3%, ., ., -0.1%
> COc1ccc(CCN(C)C(=O)CCCN2C(=O)c3cccc4cccc(c34)C2=O)cc1OC
    -9.4%, -16.9%, ., 0.2%

# The list continues.
SMILES,Rango release inh,miR-21 reporter,GLA inh pH 4.5,Rango-impB inh
CCOC(=O)N1CCN(C(=O)CCSc2ccc(C)cc2)CC1,-12.1%,-19.6%,-6.8,-3.1%
CCCc1cc(=O)oc2cc(OCC(=O)NCCCN3CCOCC3)ccc12,-12.9%,2.0%,.,0.0%
Cc1ccc(C(=O)NCc2ccccn2)o1,-0.4%,0.3%,-3.6,-1.0%
CC1(C)CC(NC(=O)C23CCC(C)(C2Br)C3(C)C)CC(C)(C)N1 (stereo not given),1.6%,-3.5%,-4.0,-0.5%
Cc1ccc(NC(=S)NCCc2ccc(S(N)(=O)=O)cc2)cc1C,0.5%,-3.7%,0.5,2.9%
CCC(=O)N1CCN(c2ccc(NC(=S)NC(=O)c3cccc([N+](=O)[O-])c3)cc2)CC1,11.5%,1.7%,3.2,-0.4%
CC1Sc2ccc(S(=O)(=O)CCC(=O)NCc3ccccc3)cc2NC1=O (stereo not given),-5.3%,6.7%,.,0.1%
CCOc1ccc(-n2c(C)cc(/C=N/N(C)C)c2C)cc1,-0.4%,-13.8%,-1.1,1.5%
Cn1c(SCc2ccccn2)nnc1-c1cnccn1,-3.7%,-29.8%,0.0,-0.2%
CCOc1ccc(CC2S/C(=N/N=C/c3ccco3)NC2=O)cc1 (stereo not given),1.6%,-1.7%,6.3,0.6%
O=C(CCNS(=O)(=O)c1ccc(Cl)cc1)NCc1cccnc1,22.1%,-6.5%,1.9,-4.9%
Cc1cccc(C)c1NC(=O)CSc1nnc(-c2cccnc2)o1,2.7%,1.9%,-5.0,5.4%

# High-throughput results (PubChem)

# Only part of the results is shown (hit frequency here may not be typical).
